Screening results (PubChem BioAssay)
gsp agonist = gsp mutant agonism; gsp mutant cells, cAMP HTRF, 30 min; control for the full effect not named in the record; Potency, µM (doses to about 76.9 µM), for inactives: top-dose activation (cAMP increase), usual class: activators; actives 0.13% (n = 340,000); active = well fitted activation curve with a large enough effect; inconclusive = small, poorly fitted or top-dose-only effect, or another doubt; inactive = no such curve, though single readings can be large or run the other way; cell line not stated here;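 note: phosphodiesterase inhibitor Ro 20-1724 added with compounds to block cAMP breakdown; potency is the fitted concentration of half-maximal effect; nearly all actives have a fitted effect of over 60% in size; about a fifth of the inactives were tested at one dose only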
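Cells in DMEM/10% FBS with G418 were pretreated with compounds in DMSO plus […] (300 uM stock) for 30 min at 37C. cAMP was measured by HTRF (cAMP-d2 plus anti-cAMP antibody-K) after 30 min at room temperature.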
ClpP mod = qHTS Assay for Activators of ClpP; ATP-dependent Clp protease proteolytic subunit (Bacillus subtilis (strain 168)), P80244; purified B. subtilis ClpP, FRET peptide cleavage, 20 min; Potency, µM (doses to about 57.5 µM), for the others: at the top dose activity change, negative = active; actives 1.9% (n = 340,000); AID 651965, 2013; active = well fitted falling curve with a large enough effect; inconclusive = small, poorly fitted or top-dose-only effect; inactive = no such curve, though single readings can be large or run the other way; note: potency is the fitted concentration of half-maximal effect; the source files actives as falling curves though it sought activators and does not explain the sign; nearly all actives have a fitted effect of over 65% in size; many hits overshoot -100%
Target sequence (P80244 whole entry, looked up): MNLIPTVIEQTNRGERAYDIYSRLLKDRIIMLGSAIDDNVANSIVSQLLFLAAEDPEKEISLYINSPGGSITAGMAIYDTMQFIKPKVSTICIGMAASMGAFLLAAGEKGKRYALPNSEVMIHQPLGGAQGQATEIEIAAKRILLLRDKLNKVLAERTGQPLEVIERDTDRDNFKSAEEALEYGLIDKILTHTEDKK
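Buffer: 100 mM Tris/HCl pH8, 100 mM KCl, 0.05% low protease BSA, 2.5% glycerol, 0.01% Tween-20. ClpP 10 microg/mL final; 20 min RT; delta FRET normalized to ADEP and DMSO controls.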
Menin MLL FP FL = inhibitors of human menin-MLL interaction, wild-type MLL peptide | Fluorescence polarization, fluorescein-MLL peptide displacement from menin | FP activity change, % at 61.4 µM | 290,000 tested, under 10 active; inconclusive = falling polarisation curve, or a change in total fluorescence; inactive = total fluorescence flat and polarisation flat or rising; no compound was filed as active; the % refers to the polarisation; negative = inhibition;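 note: % of control where 0% means no effect; inhibitors lower the polarisation; unlabelled MLL peptide was the positive control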
gsp antagonist = gsp mutant antagonism; gsp-mutant cells, cAMP HTRF, 30 min; control for the full effect not named in the record; Potency, µM (titrated, usually from 76.9 µM), for the others: top-dose activity change, negative = inhibition, usual class: inhibitors; actives 0.4% (n = 340,000); active = falling curve of any shape with a large fitted effect; inconclusive = falling curve, mostly with a smaller effect; inactive = flat or rising curve; cell line not stated here;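 note: intracellular cAMP measured with PDE inhibitor Ro 20-1724 present during compound exposure; potency is the fitted concentration of half-maximal effect; % is set by controls: 0 for no effect and ±100 for the full control effect; nearly all actives have a fitted effect of over 65% in size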
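G418-selected cells were plated in DMEM/10% FBS for 16-24 h at 37C, then treated with compounds plus the PDE inhibitor […] (300 uM solution added) for 30 min at 37C. Intracellular cAMP was measured by HTRF after 30 min lysis at room temperature.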
TRPV1 PAM = potentiators of human vanilloid receptor 1 (TRPV1). TRPV1-expressing cells, Fluo-8 calcium influx, capsaicin EC20 potentiation; host cell line not named in the record; control for the full effect not named in the record. potentiation, % at 8.33 µM. AID 540277. Q8NER1. actives 0.02% (n = 320,000); active means potentiation above 80%; inconclusive means 30% to 80%; inactive means below 30%; note: 0% is about no effect
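Cells expressing TRPV1 were dye-loaded with Fluo-8 and read kinetically: 10 s baseline, 3 min after compound (agonist portion), then 2 min after EC20 capsaicin (allosteric enhancer portion). Calcium-bound dye fluorescence at 480/520 nm.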
TRPML1 blocker = inhibitors of human TRPML1 channel; Q9GZU1; TRPML1-inducible cells, Ca2+ dye fluorescence, FDSS; hits give low values; inhibition of EC80 agonist-evoked calcium signal; activity change, negative = inhibition, % (no concentration beside the values); actives 0.02% (n = 390,000); AID 624415; in the data active means activity change below about -50%; inconclusive means about -30% to -50%; inactive means above about -30%;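 note: stimulus is agonist 54-4 at its EC80 concentration; % is set by controls: 0 for no effect and ±100 for the full control effect; compound concentration not given in the record; the text of the record puts the active cut at -80%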
Target sequence (Q9GZU1 whole entry, looked up): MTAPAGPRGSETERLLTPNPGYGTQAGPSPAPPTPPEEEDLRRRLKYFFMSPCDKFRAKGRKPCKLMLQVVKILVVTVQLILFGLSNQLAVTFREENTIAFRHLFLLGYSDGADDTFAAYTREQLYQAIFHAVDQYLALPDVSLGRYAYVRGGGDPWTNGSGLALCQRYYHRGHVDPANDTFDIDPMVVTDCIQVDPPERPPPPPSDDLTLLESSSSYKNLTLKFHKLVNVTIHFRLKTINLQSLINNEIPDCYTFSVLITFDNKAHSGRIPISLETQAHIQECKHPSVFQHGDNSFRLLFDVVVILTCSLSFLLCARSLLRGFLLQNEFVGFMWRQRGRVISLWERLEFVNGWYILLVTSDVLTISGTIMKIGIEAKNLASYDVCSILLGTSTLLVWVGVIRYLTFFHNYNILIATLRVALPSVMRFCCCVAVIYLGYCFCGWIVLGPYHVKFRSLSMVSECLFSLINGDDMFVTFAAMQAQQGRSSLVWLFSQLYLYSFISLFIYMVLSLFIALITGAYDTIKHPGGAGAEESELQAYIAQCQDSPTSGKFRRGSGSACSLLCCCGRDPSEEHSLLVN
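Calcium fluorescence in TRPML1-DL cells induced overnight with Tet: a 110 s read after compound pin addition, then a 110 s antagonist read after challenge with 54-4 at 4 uM final (EC80).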
Sfp PPTase inh = Sfp phosphopantetheinyl transferase inhibition; Q9F4F7; Biochemical Sfp PPTase activity, qHTS; Potency, µM, without a hit: max response, negative = inhibition, most hits filed as inhibitors; actives 3.5% (n = 310,000); active = well fitted inhibition curve with a large enough effect; inconclusive = small, poorly fitted or top-dose-only effect, or another doubt; inactive = no such curve, though single readings can be large or run the other way;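 note: the enzyme is Sfp with the accession as filed and its product quenches rhodamine fluorescence; potency is the fitted concentration of half-maximal effect; 0% = enzyme reaction without inhibitor and -100% = no enzyme wells; top concentration of the series not given in the record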
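Fluorescence-quenching assay with 15 nM Sfp, 5 uM rhodamine-CoA and 12.5 uM BHQ-2-labelled ybbR peptide in pH 7.6 Hepes/MgCl2 buffer. Enzyme was pre-incubated with compound for 15 min at room temperature. Rate was taken from the 30-min fluorescence change (525/598 nm).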
* = called active by the depositor; ? = inconclusive; . = not tested or not shown; & = joins results of further samples; [ ] = another dose, or the depositor's remark.

SMILES	gsp agonist	ClpP mod	Menin MLL FP FL	gsp antagonist	TRPV1 PAM	TRPML1 blocker	Sfp PPTase inh
CC[C@]12c3[nH]c4cc(-c5ccco5)ccc4c3CCN1C(=O)[C@@H](CC(=O)NCCC1=CCCCC1)C[C@@H]2C(=O)N1CCN(C(=O)c2ccco2)CC1	.	3.6%	.	-27%	.	1	.
CC(C)[C@H](NC(=O)[C@@H]1CSC2c3ccccc3C(=O)N21)C(=O)NCc1ccco1 (stereo not given in full)	-18%	-3.2%	-1.1	1%	1	-8	?
NS(=O)(=O)c1ccc(NC(=O)N2c3ccccc3Sc3ccccc32)cc1	-25%	-7.9%	4.6	-10%	0	38	-10%
COc1ccc(CN2CCCCC2C(=O)Nc2ccc(OC)c(OCC(C)C)c2)cc1OC (stereo not given)	-8%	1.8%	0.8	11%	-6	-26	13%
Cc1ccc(C(=O)N/C(=C/c2cccnc2)C(=O)N2CCCCCC2)cc1	-34%[inhibitor]	1.2%	.	3%	22	-3	4%
Cc1ccc(/C=N/NC(=O)c2ccco2)s1	-48%[inhibitor]	-7.0%	-0.5	7%	-9	-9	-1%
CCC(=O)Nc1nc(C)c(Oc2ccccc2)c(=O)[nH]1	-42%	0.8%	4.4	-10%[15.4 µM]	1	-2	-8%
COc1ccc2c(c1)CC1c3c(cc4c(c3-2)OCO4)CC[N+]1(C)[O-] (stereo not given)	?	-23%	6.4	13%	?	-9	-6%
O=C(NCCn1cc(SCc2ccc(F)cc2)c2ccccc21)c1c(F)cccc1F	-34%	1.2%&-3.7%	0.1	?	-17	13&52	-3%
O=C(/C=C/c1cccs1)Nc1nc(-c2ccccc2)cs1	-8%	-9.1%	-2.8	2%	9	5	15%
COc1ccc(/C=C/C(=O)N2CCN(S(=O)(=O)c3ccccc3)CC2)cc1OC	?	-21%	-1.6	-3%	2	2	7%
Cn1c(C(=O)N[C@@H](Cc2ccccc2)C(=O)O)cc2cc(F)ccc21	?	3.6%	-2.6	0%	-3	2	3%
c1ccc(Cn2ncc3c(Nc4ccccc4)ncnc32)cc1	18%	-6.6%	0.5	9%	6	-29	2%
COc1cc(C(N)=O)cc(Br)c1OCc1ccccc1	-11%	-0.2%	0.5	-18%	6	-1	2%
O=C1CN(C(=O)c2ccc(F)c(S(=O)(=O)N3CCOCC3)c2)c2ccccc2N1	3%[15.4 µM]	.	0.1	19%	-13	7	8%

Complete entries as entered above.
O=C(NCCn1cc(SCc2ccc(F)cc2)c2ccccc21)c1c(F)cccc1F is listed with gsp agonist = -34%; ClpP mod = 1.2%&-3.7%; Menin MLL FP FL = 0.1; gsp antagonist = ?; TRPV1 PAM = -17; TRPML1 blocker = 13&52; Sfp PPTase inh = -3%
CCC(=O)Nc1nc(C)c(Oc2ccccc2)c(=O)[nH]1 is listed with gsp agonist = -42%; ClpP mod = 0.8%; Menin MLL FP FL = 4.4; gsp antagonist = -10%[15.4 µM]; TRPV1 PAM = 1; TRPML1 blocker = -2; Sfp PPTase inh = -8%
COc1ccc2c(c1)CC1c3c(cc4c(c3-2)OCO4)CC[N+]1(C)[O-] (stereo not given) is listed with gsp agonist = ?; ClpP mod = -23%; Menin MLL FP FL = 6.4; gsp antagonist = 13%; TRPV1 PAM = ?; TRPML1 blocker = -9; Sfp PPTase inh = -6%

Part of the list above, showing only TRPML1 blocker, TRPV1 PAM and gsp agonist.
canonical_smiles,TRPML1 blocker,TRPV1 PAM,gsp agonist
CC[C@]12c3[nH]c4cc(-c5ccco5)ccc4c3CCN1C(=O)[C@@H](CC(=O)NCCC1=CCCCC1)C[C@@H]2C(=O)N1CCN(C(=O)c2ccco2)CC1,1,.,.
O=C1CN(C(=O)c2ccc(F)c(S(=O)(=O)N3CCOCC3)c2)c2ccccc2N1,7,-13,3%[15.4 µM]

The listing continues:
SMILES	gsp agonist	ClpP mod	Menin MLL FP FL	gsp antagonist	TRPV1 PAM	TRPML1 blocker	Sfp PPTase inh
CC(=O)c1cccc(-n2nnnc2SCC(=O)N2CCCC2)c1	1%	-2.2%	4.3	10%	7	-10	4%
O=C(c1ccccc1NS(=O)(=O)c1cccs1)N1CCOCC1	-37%	1.6%	-2.0	-1%	12	1	14%
CCN(CC)S(=O)(=O)c1ccc(NC(=O)CC(NC(C)=O)c2ccccc2)cc1 (stereo not given)	3%	2.1%	1.0	17%	-7	7	16%
O=C(NCc1cccnc1)c1cc(Sc2cccc(Cl)c2)nc2ccccc12	-26%	-0.5%	2.8	-9%	-10	-1	-8%
CC1(C)CC(=O)c2c(O)cc(OCc3ccc([N+](=O)[O-])cc3)cc2O1	?	-6.3%	1.2	3%	3	-3	-7%
Cc1c(OCc2ccc(C(=O)O)o2)ccc2c3c(c(=O)oc12)CCC3	-31%	3.2µM*	-0.8	-33%	?	10	-15%
O=C(OCc1cccc([N+](=O)[O-])c1)c1ccc2ccccc2n1	-3%[15.4 µM]	0.9%	2.1	-1%	?	33	-28%
CCc1cc(=O)oc2cc(C)cc(OCC(=O)NCCN3CCOCC3)c12	18%	4.0%	-7.4	-2%	-7	-1	5%
COc1ccc(S(=O)(=O)NCc2cccnc2)c(Cl)c1Cl	?	1.1%	.	.	.	-13	.
CCCC(C)C(=O)Nc1ccc2c(c1)OCCO2 (stereo not given)	-1%	3.5µM*	-1.4	0%	0	-11	6%
Cc1ccc2nc(SCC(=O)NCc3ccc(F)cc3)[nH]c2c1	-32%[inhibitor]	1.3%	-9.4	-12%	22	-24	10%
CCC(CC)NC(=O)COC(=O)c1ccc(NS(=O)(=O)c2ccc3c(c2)OCCO3)cc1	-44%[inhibitor]	0.3%	5.3	-9%	3	-12	18%
CCN1C(=O)c2ccccc2S(=O)(=O)c2ccc(C(=O)NCCOC)cc21	11%[15.4 µM]	5.6%	-5.6	7%	21	17	-3%
O=C(NCC1CCN(C(=O)c2cccc([N+](=O)[O-])c2)CC1)c1cccc([N+](=O)[O-])c1	12%	.	0.9	-15%	3	0	9%
O=c1c2ccccc2oc2nc(-c3ccco3)n(-c3ccccc3)c(=O)c12	-14%[15.4 µM]	.	2.0	8%	-5	13	26%
C/C(Cc1ccccc1)=N\NC(=O)CNC(=O)c1cccc(Cl)c1	-1%[15.4 µM]	.	0.0	-9%	9	0	-13%
C=COCCNC(=S)N1CCOCCOCCN(C(=S)NCCOC=C)CCOCC1	-40%[inhibitor]	0.2%	-1.1	-2%	-1	1	23%
CCOC(=O)CNC(=O)N1CCCC(C(=O)c2ccc3c(c2)OCO3)C1 (stereo not given)	-27%	-5.7%	-5.3	-25%	1	-2	17%
CC(O)CNc1ncnc2cc(-c3ccc(F)cc3)sc12 (stereo not given)	30%	.	7.5	-2%	0	0	9%
O=C1CN(S(=O)(=O)c2ccc(Cl)cc2)c2ccccc2N1	-98%[inhibitor]	.	3.0	6%	0	-1	15%
CCNc1ccc(S(=O)(=O)N(C)C)cc1NCC(=O)Nc1ccc(Br)cc1F	6%	-5.6%	9.4	-34%	14	-9	0%
Cc1ccc(S(=O)(=O)N(C)CC(=O)NC2CC(C)(C)NC(C)(C)C2)cc1	-7%	-1.4%	1.0	5%	7	13	4%
Nc1nonc1-n1nnc(C(=O)N/N=C/c2ccc(OCc3cccc(Cl)c3)cc2)c1CN1CCCCC1	?	-1.2%	0.7	-5%	20	-14	0%
Fc1ccccc1-c1nc(-c2ccc(Cl)cc2)no1	17%	2.0%	.	3%	.	4	.
COc1ccc(OCC(=O)Nn2c(-c3ccc(C)cc3)nc3ccccc3c2=O)cc1	-15%	?	-2.0	-14%	-5	4	12%
CCNc1nc(NCC)n2c(SCC(=O)Nc3ccc(C)cc3Br)nnc2n1	6%	.	.	-3%	.	-2	.
O=C(O)c1ccc(-n2nc(C(F)(F)F)c3c2CCCC3)cc1	0%&-3%	0.1%&-4.4%	1.0&-0.1	-12%&-10%	2&0	11&-1	18%&14%
Cn1c(C(=O)N2CCOCC2)cnc1Sc1ncc(C(F)(F)F)cc1Cl	?	-14%	-11	0%	?	-5	-8%
Fc1ccc(NC(=S)Nc2cccnc2)c(F)c1F	0%[15.4 µM]	.	-4.4	10%	7	14	-16%
Cc1ccc(-n2ncc3c(=O)n(CC(=O)N4CCN(c5ccccc5F)CC4)cnc32)cc1C	9%	-3.2%	2.2	-7%	-21	23	6%
Cc1noc(NS(=O)(=O)c2ccc(N/C=C\C(=O)c3ccncc3)cc2)c1C	20µM*	0.7%	0.4	22%	3	8	10%
Cn1c(CN2CCN(S(C)(=O)=O)CC2)nc2cc([N+](=O)[O-])ccc21	31%	.	1.6	8%	2	-14	9%
O=C(NCc1cccc(Cl)c1)NC(=O)c1csc([N+](=O)[O-])c1	16%	1.0%	2.1	10%	3	31	-17%
CC1(C)CC(CC(=O)O)(c2ccc(Cl)cc2)CCO1 (stereo not given)	-42%[inhibitor]	-1.5%	-2.6	1%	-6	-18	18%
COc1ccc(NC(=O)c2ccc(NC(=O)CSc3nccc(=O)[nH]3)cc2)cc1	15%[15.4 µM]	.	-3.0	0%	3	10	-4%
COc1cccc(CN2CCCC(CNC(=O)c3ccc(F)cc3)C2)c1OC (stereo not given)	9%[15.4 µM]	.	-0.9	8%	-6	8	7%
CC(C)=CCC/C(C)=C/CC/C(C)=C/CC/C(C)=C/CC1=C(C)C(=O)c2ccccc2C1=O	.	1.4%	4.1	-6%	?	-6	?
COCCCNc1c2c3c(cccc3[nH]c1=O)C(=O)c1ccccc1-2	?	-2.6%	?	9%	9	-18	79µM*
O=C(O)CCc1nn2c3ccccc3nc2n(Cc2ccccc2)c1=O	5%[15.4 µM]	.	2.2	-18%	?	3	-24%
COc1ccc(/C=N/NC(=S)NCc2ccccc2)cc1OC	-2%	-8.2%	8.9	11%	10	2	11%
C[C@H](CO)N1C[C@H](C)[C@@H](CN(C)C(=O)CC2CC2)Oc2cc(Br)ccc2S1(=O)=O	25%	1.2%	.	.	.	21	.
CS(=O)(=O)N(CC(=O)Nc1ccc2c(c1)OCO2)c1ccc2c(c1)OCO2	6%	0.3%	-2.9	3%	3	-2	17%
Cc1onc(-c2ccccc2)c1C(=O)OCC(=O)c1ccc(F)cc1	-7%	0.0%	.	.	.	2	.
